A1 inh: inhibitors of the anti-apoptotic protein A1, read as caspase activation | MEF A1-2A-BIM cells, Caspase-Glo 3/7 luminescence, 3 h; percent of clofoctol response, vehicle zero | caspase activation, % (concentration not given with the values) | actives 0.066% (n = 330,000) | AID 2462;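 active = over half of replicate activation scores above 10%, or exactly half above 10 with the replicate mean above 10; inconclusive = replicate mean below 10 yet half the replicates above 10; inactive = over half of replicates below 10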;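 also: wells of about 30 µL received 50 nL stock; many hits fall short of the cut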
Calb FLC: C. albicans growth modulation with fluconazole; C. albicans CaCi-2 (fluconazole-resistant clinical isolate) + fluconazole, Alamar Blue growth, 48 h; growth inhibition, % (no concentration beside the values); actives 0.57% (n = 300,000);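 active = most replicates above 75%; inconclusive = exactly half above 75%; inactive = most below 75%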;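 also: all wells also contain fluconazole at 8 µg/ml as a sub-toxic cotreatment; 0% = median of DMSO wells and 100% = median of geldanamycin control wells; wells of about 8 µL received 7.5 nL stock; the first replicate is given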
Beta2AR agonist: activates human beta-2 adrenergic receptor causing internalization | P07550 | Am2.2-beta2AR cells, FAP receptor internalization, flow cytometry; reference of the scale not given here | response, % (no concentration beside the values) | actives 0.43% (n = 340,000) | AID 504454;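 active = response above a set limit, near 3 SD of response in nonfluorescent compounds, cut at about 42% in these data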;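 also: stock transfer was 100 nL into about 11 µL; a reference agonist was the positive control; negative values mostly stem from fluorescent compounds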
Target sequence (P07550 whole entry, looked up): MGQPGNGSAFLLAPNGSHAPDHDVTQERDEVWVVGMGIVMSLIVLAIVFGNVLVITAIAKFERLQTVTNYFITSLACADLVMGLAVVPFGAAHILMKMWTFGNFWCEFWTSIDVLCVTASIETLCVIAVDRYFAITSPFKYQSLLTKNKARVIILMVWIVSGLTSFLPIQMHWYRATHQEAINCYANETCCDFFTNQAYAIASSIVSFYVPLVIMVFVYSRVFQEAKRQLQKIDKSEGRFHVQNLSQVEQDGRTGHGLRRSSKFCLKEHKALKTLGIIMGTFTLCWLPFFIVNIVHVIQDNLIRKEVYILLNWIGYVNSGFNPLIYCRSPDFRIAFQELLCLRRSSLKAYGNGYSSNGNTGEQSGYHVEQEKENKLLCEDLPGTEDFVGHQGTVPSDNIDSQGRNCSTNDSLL
LANA-H2A inh: blocks KSHV LANA binding to histone H2A/H2B; Q9QR71; cell-free LANA-H2A/H2B peptide, fluorescence polarization; inhibition, % (no concentration beside the values); actives 0.6% (n = 320,000); in the data active = inhibition mostly above about 10%, no sharp cut-off; inactive = mostly below about 6.7%;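 also: stock transfer was 7.5 nL into about 10 µL; 0% = median of vehicle wells and 100% = median of positive control wells; one replicate is shown; the record names a cut of 25% in any replicate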
RanGTP-Impb inh: disruptors of Ran-importin-beta complex formation – biochemical, FRET, CFP-Ran, YFP-importin-beta, homogeneous, primary screen; cell-free CFP-Ran/YFP-importin-beta FRET ratio; inhibition, % (concentration not given with the values); actives 1.1% (n = 300,000); AID 2216;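 active = most replicates above 15%; inconclusive = exactly half above 15%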;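 also: 0% = DMSO wells and 100% = Ran loaded with GDP instead of GTP; wells of about 40 µL received 100 nL stock; the first replicate is given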
T cruzi repl: blocks replication of Trypanosoma cruzi. T. cruzi beta-gal in NIH3T3, luminescence, 90 h. inhibition, % (no concentration beside the values). actives 1.4% (n = 300,000). AID 1885;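 active = mean inhibition across valid replicates above about 55%, limit read from the data; inconclusive = mean below that limit but half or more replicates reach it; inactive = mean below it, under half of replicates reach it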;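 also: signal also drops with host cell toxicity which is not excluded here; 0% = plate median of DMSO wells and 100% = zero luminescence signal; higher percent means less beta-gal luminescence so fewer parasites; stock transfer was 50 nL into about 50 µL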
UCH37 inh: human UCH37 deubiquitinating enzyme inhibition | Q9Y5K5 | purified proteasome/UCH37, Ub-AMC cleavage fluorescence | inhibition, % (test concentration not listed) | actives 0.33% (n = 330,000) | AID 588478;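 active = mean of two replicates above 20%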;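 also: 0% = compound-free wells with enzyme and 100% = wells lacking proteasome; stock transfer was 100 nL into about 20 µL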
Target sequence (Q9Y5K5 whole entry, looked up): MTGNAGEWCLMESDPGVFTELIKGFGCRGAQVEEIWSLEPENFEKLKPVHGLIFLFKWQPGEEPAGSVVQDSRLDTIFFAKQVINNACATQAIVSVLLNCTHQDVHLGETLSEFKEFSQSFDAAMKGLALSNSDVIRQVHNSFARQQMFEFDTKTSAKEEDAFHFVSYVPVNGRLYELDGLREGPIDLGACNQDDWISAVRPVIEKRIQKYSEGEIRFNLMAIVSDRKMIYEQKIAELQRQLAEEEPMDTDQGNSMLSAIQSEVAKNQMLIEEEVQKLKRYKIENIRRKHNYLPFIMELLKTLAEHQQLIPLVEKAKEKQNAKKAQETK
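System: Proteasome-associated human UCH37 deubiquitinase; Input: 0.15 nM proteasome in added enzyme buffer; Also added: Ub-AMC substrate from 1 µM stock; Incubation: 30 min compound-proteasome preincubation then 25 min substrate reaction, room temperature; Detection: fluorescence, ex 355 nm, em 460 nm; Read-out: % inhibition of Ub-AMC cleavage fluorescence; Benchmarks: no-proteasome and no-compound wells.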
Beta apoptosis: beta cell apoptosis inhibition; actives 0.8% (n = 300,000); protection from apoptosis, % (no concentration beside the values); INS-1E cytokine-induced death, ATP luminescence, 48 h; percent of positive-control rescue, neutral wells zero;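 active = all replicates at 75% or more, or half of them and the mean; inconclusive = half reach 75% but not the mean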;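 also: 0% = cytokine-treated negative control wells and 100% = positive control rescue; higher means more ATP so stronger rescue from cytokine killing; wells of about 40 µL received 100 nL stock; the first replicate is given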
* = called active by the depositor; ? = inconclusive; · = not tested or not shown.

SMILES	A1 inh	Calb FLC	Beta2AR agonist	LANA-H2A inh	RanGTP-Impb inh	T cruzi repl	UCH37 inh	Beta apoptosis
COc1cccc(N2CCN(S(=O)(=O)c3cccc4nsnc34)CC2)c1	-0.5	8.8	-9.7	-2.7	-1.1	3.6	0.5	-4.7
O=C(NC1CCCC1)C(c1ccncc1)N(C(=O)c1csnn1)c1ccc(F)c(Cl)c1 (stereo unspecified)	0.9	-9.6	-3.0	-8.6	1.1	1.4	-0.8	-3.2
CC(C)CCn1c(=O)c2ccccc2n2c(CN3CCCC3)nnc12	0.3	-15.4	-15.4	3.8	3.1	2.3	3.8	-10.6
COCCNC(=O)c1ccc(CS(=O)(=O)c2ccc(Cl)cc2)o1	0.6	1.1	0.0	0.2	-4.1	-5.2	0.6	-3.7
COc1cccc(CNC(=O)c2cc(S(=O)(=O)N3CCOCC3)ccc2N2CCCC2)c1	-0.2	·	3.7	·	·	·	2.5	-5.2
O/N=C/c1cc(Cl)ccc1OCc1cccc2ccccc12	-0.6	0.7	·	-1.4	-2.3	17.9	·	2.4
CCCN(CC(=O)Nc1ccccc1C)C(=O)CSc1ccccc1C	-0.5	·	-0.8	3.0	·	·	1.6	-5.4
FC(F)(F)c1cc(-c2ccco2)nc(-n2cnc3ccccc32)n1	0.7	29.9	2.1	-6.1	0.5	0.9	-31.3	-7.8
CC(C)(C)C(=O)Nc1nnc(CCc2ccccc2)s1	-0.6	-22.8	7.1	-1.7	4.7	-4.9	-3.6	-2.6
Cc1ccc(NC(=O)CCN2C(=O)c3ccccc3C2=O)c(C)c1	0.5	9.0	-1.3	-0.6	-0.2	-5.7	1.0	-5.6
C=CCn1cc(-c2ccc(Cl)cc2)cc(C#N)c1=O	0.5	-6.1	-1.3	3.5	-3.6	5.2	-55.4	5.0
CCS(=O)(=O)N1CCN(C(=O)C(c2ccccc2)c2ccccc2)CC1	0.2	-4.6	-3.5	5.3	?	-4.6	-1.7	-5.7
Cc1c(NC(=O)COc2ccc3ccc(=O)oc3c2)c(=O)n(-c2ccccc2)n1C	0.3	-0.9	18.1	5.4	2.6	-12.6	-186.3	1.7
O=C(Nc1cccc(C(=O)N2CCOCC2)c1)c1ccccc1Cl	-0.1	7.2	4.4	9.6	-0.5	-4.5	1.3	1.0
O=C(Nc1cccc(-c2cnc3ccccc3n2)c1)C1CC(=O)N(c2ccccc2)C1 (stereo unspecified)	-1.1	-5.9	18.8	2.2	2.4	20.9	3.7	1.1
COCCN(CCOC)C(=O)c1ccc(CSc2nc3ccccc3s2)cc1	-2.4	1.3	-12.3	-1.4	-0.8	-4.6	3.3	-2.2
CC(=O)Nc1sc(C)c(C)c1C(=O)OCC(=O)Nc1ccc(S(N)(=O)=O)cc1	0.0	·	1.6	-1.6	·	·	-6.2	2.6
Cc1ccc(NC(=O)CN(C)C(=O)c2cc3ccccc3o2)cc1	?	23.0	3.9	-1.0	-3.3	4.8	1.0	0.7
Nc1nc(CSc2nnc(-c3cccc(F)c3)n2-c2ccccc2)nc(N2CCOCC2)n1	0.8	7.1	1.6	1.6	-1.0	-6.7	3.0	-2.1
Cc1ccc(C)c(CSCC(=O)NCc2cccs2)c1	0.9	5.1	-5.0	0.1	-3.9	11.8	-1.0	0.0
COc1cc(OC)c(/C=N/n2c(C)nnc2C)c(OC)c1	-0.3	6.8	-5.3	2.4	8.8	12.3	·	-1.6
O=C(CN1CCCCCC1)N1c2ccccc2C=Cc2ccccc21	-1.3	7.3	3.5	3.1	1.3	-10.1	2.1	-2.9
O=C(Nc1ccccc1)Nc1snnc1C(=O)Nc1cccc(O)c1	·	40.2	-14.7	·	5.1	-3.2	3.9	·
O=c1[nH]c(CSc2ncc(C(F)(F)F)cc2Cl)nc2cc(C(F)(F)F)ccc12	0.2	-12.4	0.8	-0.6	5.8	0.1	-2.1	-5.8
Cc1ccc(S(=O)(=O)CCC(=O)NC2CCCC2)cc1	-1.3	-4.2	-1.7	-1.4	-3.4	-12.1	4.7	-0.5
SMILES	A1 inh	Calb FLC	Beta2AR agonist	LANA-H2A inh	RanGTP-Impb inh	T cruzi repl	UCH37 inh	Beta apoptosis
COC(=O)c1ccc(NC(=O)C2CCCN2C(=O)OCc2ccccc2)cc1 (stereo unspecified)	-0.5	13.8	-6.9	8.3	-1.2	2.6	2.8	-2.8
CCOP(=O)(OCC)c1cccc(P(=O)(c2ccccc2)c2ccccc2)c1O	0.9	3.9	-3.3	3.2	?	-7.3	-5.9	-2.3
O=C1c2ccccc2CC1Sc1nnc(-c2ccccn2)o1 (stereo unspecified)	·	45.3	-9.5	·	1.1	2.5	2.0	·
Cc1cc(C)nc(N2CCC(C(=O)NCCc3ccc(Cl)cc3)CC2)n1	-0.1	1.3	6.8	2.6	2.3	10.8	3.1	0.4
CN(Cc1nc2ccccc2c(=O)[nH]1)C(=O)C1CC(=O)N(c2cccc3ccccc23)C1 (stereo unspecified)	0.0	·	-3.8	-1.1	·	·	1.1	-3.7
Cc1cccc2nc(COc3ccc(-c4ccccc4)cc3)cn12	-8.6	-67.9	·	2.2	0.6	10.8	0.2	·
COc1ccc(C(CNC(=O)CCNC(=O)c2ccccc2OC)N2CCCC2)cc1 (stereo unspecified)	0.3	-1.8	3.8	-2.0	3.4	-5.3	2.5	-3.2
CC(=O)Nc1ccc(NC(=O)CN(c2cc(Cl)ccc2Cl)S(C)(=O)=O)cc1	-1.4	5.6	4.4	2.3	3.8	-2.5	3.4	30.8
COC(=O)C(Cc1ccc(O)cc1)NC(=O)CCc1ccco1 (stereo unspecified)	0.9	-9.3	7.8	-3.1	-0.1	-4.7	1.8	·
CCOCCCn1c(SCC(=O)NCc2ccc3c(c2)OCO3)nc2ccccc2c1=O	-1.2	-30.0	-4.8	-4.8	-1.8	6.8	2.5	1.7
CCN(C(=O)COC(=O)c1ccccc1SCC(=O)N1CCCC1)C1CCS(=O)(=O)C1 (stereo unspecified)	-0.7	-0.6	-5.8	3.6	-0.2	-11.2	-2.5	-0.7
Cc1cc(C(=O)CN2C(=O)C(=O)N(Cc3ccccc3)C2=O)c(C)n1CC1COc2ccccc2O1 (stereo unspecified)	1.8	10.0	0.8	-4.7	-4.7	0.9	4.3	1.6
COc1cc(C(=O)Nc2ccc3c(c2)OCO3)ccc1OCc1c(C)noc1C	0.2	4.2	-1.2	4.3	2.6	-1.6	-0.1	7.2
Cc1c(C(=O)O)[nH]c2c1C(=O)CC(c1ccc(C(C)(C)C)cc1)C2 (stereo unspecified)	-1.0	0.8	5.3	-2.4	-4.4	?	1.3	-4.9
C/C(=N\N=C1\NC(=O)C(CC(=O)NCc2ccccc2)S1)C(C)C (stereo unspecified)	0.7	-19.7	5.7	-4.5	3.3	-3.9	·	-15.6
Cc1c([N+](=O)[O-])cc(S(=O)(=O)Nc2ccc(-c3ccc(N4CCCC4)nn3)cc2)cc1[N+](=O)[O-]	-0.6	39.7	13.2	·	1.1	13.0	1.6	-8.5
CCOc1c(OC(C)=O)ccc(/C=C2\N=C(SCC)SC2=O)c1[N+](=O)[O-]	1.3	4.9	9.8	-5.8	-2.2	-22.4	5.9	-3.9
COC(=O)C1(C(C[N+](=O)[O-])c2ccco2)C(=O)NCC1c1ccccc1 (stereo unspecified)	0.3	-5.0	11.6	5.8	-1.8	0.9	1.2	-6.3
O=C(c1cc(-c2ccccc2O)on1)N1CCOCC1	-1.9	0.6	0.0	1.4	-4.8	-6.8	3.5	-10.6
Cn1c(SCC(=O)Nc2ccc(NC(=O)c3cccs3)cc2)nnc1-c1ccncc1	0.5	4.1	-15.2	1.7	1.2	2.9	-65.2	-7.4
Cc1nnc(NC(=O)c2c(-c3ccccc3)noc2C)s1	-0.8	36.1	-0.9	2.6	2.4	1.0	4.5	-1.3
O=S(=O)(NC1CCc2ccccc21)c1ccc(S(=O)(=O)N2CCCC2)cc1 (stereo unspecified)	0.1	-5.2	9.4	-2.7	-2.7	2.7	3.8	-5.5
COc1ccc(CCC(=O)NCc2cn3ccc(C)cc3n2)cc1	-0.2	1.3	3.5	-3.4	?	15.8	3.7	-5.5
CCCN(CCC)S(=O)(=O)c1ccc(NC(=O)COc2ccccc2)cc1	-0.3	6.5	0.0	4.4	1.6	-8.7	2.0	-4.2
COc1ccc(OC)c(CNC(=O)c2nn(C)c3c2CS(=O)(=O)c2ccccc2-3)c1	-0.1	-4.5	1.9	-0.5	1.8	0.6	1.9	-4.0
SMILES	A1 inh	Calb FLC	Beta2AR agonist	LANA-H2A inh	RanGTP-Impb inh	T cruzi repl	UCH37 inh	Beta apoptosis
COCc1cc(C)nc(SCC(=O)Nc2cc3c(cc2C#N)OCO3)c1C#N	0.8	-3.1	4.9	-1.4	?	1.0	0.1	-3.9
Cc1ccc(C(=O)Nc2cccc(S(=O)(=O)N3CCOCC3)c2)cc1[N+](=O)[O-]	-0.9	20.8	-9.1	4.4	3.8	0.8	3.9	0.2
O=C(NC1CCCCC1)N1CCN(c2ncccn2)CC1	-0.3	-11.8	0.8	-1.4	1.4	·	0.5	2.8
COc1cccc(-c2ncc3ccccc3c2COC(=O)c2ccc(C(F)(F)F)cc2)c1	-0.4	·	3.0	6.4	·	·	5.8	-0.4
Cc1cc(S(=O)(=O)N2CCCC2)ccc1OCC(=O)NCc1ccco1	-0.8	-1.3	-1.4	8.5	-2.2	4.9	-0.5	1.5
CCCCN(CC)CCCNC(=S)Nc1ccc2nc(N3CCN(C)CC3)cc(C)c2c1	1.6	-5.5	17.2	-6.2	0.6	53.0	-7.0	-2.1
O=C(CSc1nnc(CNC(=O)c2cccs2)o1)Nc1ccc2c(c1)OCO2	-0.2	-4.6	-1.5	-1.3	1.0	-1.6	0.2	-2.1
COC(=O)c1ccccc1NS(=O)(=O)c1cn(C)c(=O)n(C)c1=O	0.0	-4.5	0.9	-1.2	5.0	-25.1	0.1	1.1
CCOC(=O)C1Nc2ccc(OC(F)(F)F)cc2C2C=CCC12 (stereo unspecified)	0.6	6.9	11.1	1.8	2.7	-20.2	1.2	0.7
CCOc1ccc(-n2nnnc2SCC(=O)Nc2ccc(NC(C)=O)cc2)cc1	0.1	8.5	-0.6	4.8	-2.3	17.2	1.0	-5.4
O=C(O)c1ccc(N/N=C2/CCSc3ccc(F)cc32)cc1	-0.4	-1.7	5.5	1.0	?	-19.8	·	-9.3
CCOc1ccc(C(=S)N2CCOCC2)cc1	1.3	-1.2	-18.6	-7.9	0.9	-6.6	2.8	-1.5
CC1CCc2nn(CC(=O)NC3CCCC3)cc2C1 (stereo unspecified)	-0.2	-2.7	-6.3	-1.4	0.0	0.3	0.3	-2.7
O=C(CSc1nnc2ccccn12)NNC(=O)c1ccccc1	0.8	12.5	-1.9	-0.6	6.1	-4.3	2.0	-12.0
O=c1cc(O)n(-c2ccc(F)cc2)c(=S)[nH]1	0.9	1.3	-6.1	-3.6	2.5	-12.4	1.8	-0.4
